T cruzi inh = inhibitors of intracellular T. cruzi growth, primary screen, luminescence, NIH3T3 host cells. T. cruzi beta-gal in NIH3T3, 90 h. inhibition, % (no concentration beside the values). 300,000 compounds, 1.4% hits. AID 1885, 2009;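 active means mean inhibition across valid replicates above about 55%, limit read from the data; inconclusive means mean below that limit but half or more replicates reach it; inactive means mean below it, under half of replicates reach it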;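 further: signal also drops with host cell toxicity which is not excluded here; 0% = plate median of DMSO wells and 100% = zero luminescence signal; higher percent means less beta-gal luminescence so fewer parasites; stock transfer was 50 nL into about 50 µL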
RanGTP-Impb inh = inhibitors of RanGTP-importin-beta interaction, primary screen, biochemical, FRET, CFP-Ran, YFP-importin-beta, homogeneous | inhibition, % (concentration not given with the values) | 300,000 compounds, 1.1% hits | Ran GTPase (GTP-bound) - importin-beta complex | cell-free CFP-Ran/YFP-importin-beta FRET ratio;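 active means most replicates above 15%; inconclusive means exactly half above 15%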;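 further: 0% = DMSO wells and 100% = Ran loaded with GDP instead of GTP; wells of about 40 µL received 100 nL stock; the first replicate is given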
LANA-H2A inh = blockers of LANA interaction with H2A/H2B – biochemical, FP readout, HTS, primary screen; inhibition, % (test concentration not listed); cell-free LANA-H2A/H2B peptide, fluorescence polarization; Protein LANA1 (Human herpesvirus 8 type P (isolate GK18)), Q9QR71; 320,000 compounds, 0.6% hits; AID 2629, 2010; in the data active means inhibition mostly above about 10%, no sharp cut-off; inactive means mostly below about 6.7%;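 further: stock transfer was 7.5 nL into about 10 µL; 0% = median of vehicle wells and 100% = median of positive control wells; one replicate is shown; the record names a cut of 25% in any replicate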
Target sequence (Q9QR71 whole entry, looked up): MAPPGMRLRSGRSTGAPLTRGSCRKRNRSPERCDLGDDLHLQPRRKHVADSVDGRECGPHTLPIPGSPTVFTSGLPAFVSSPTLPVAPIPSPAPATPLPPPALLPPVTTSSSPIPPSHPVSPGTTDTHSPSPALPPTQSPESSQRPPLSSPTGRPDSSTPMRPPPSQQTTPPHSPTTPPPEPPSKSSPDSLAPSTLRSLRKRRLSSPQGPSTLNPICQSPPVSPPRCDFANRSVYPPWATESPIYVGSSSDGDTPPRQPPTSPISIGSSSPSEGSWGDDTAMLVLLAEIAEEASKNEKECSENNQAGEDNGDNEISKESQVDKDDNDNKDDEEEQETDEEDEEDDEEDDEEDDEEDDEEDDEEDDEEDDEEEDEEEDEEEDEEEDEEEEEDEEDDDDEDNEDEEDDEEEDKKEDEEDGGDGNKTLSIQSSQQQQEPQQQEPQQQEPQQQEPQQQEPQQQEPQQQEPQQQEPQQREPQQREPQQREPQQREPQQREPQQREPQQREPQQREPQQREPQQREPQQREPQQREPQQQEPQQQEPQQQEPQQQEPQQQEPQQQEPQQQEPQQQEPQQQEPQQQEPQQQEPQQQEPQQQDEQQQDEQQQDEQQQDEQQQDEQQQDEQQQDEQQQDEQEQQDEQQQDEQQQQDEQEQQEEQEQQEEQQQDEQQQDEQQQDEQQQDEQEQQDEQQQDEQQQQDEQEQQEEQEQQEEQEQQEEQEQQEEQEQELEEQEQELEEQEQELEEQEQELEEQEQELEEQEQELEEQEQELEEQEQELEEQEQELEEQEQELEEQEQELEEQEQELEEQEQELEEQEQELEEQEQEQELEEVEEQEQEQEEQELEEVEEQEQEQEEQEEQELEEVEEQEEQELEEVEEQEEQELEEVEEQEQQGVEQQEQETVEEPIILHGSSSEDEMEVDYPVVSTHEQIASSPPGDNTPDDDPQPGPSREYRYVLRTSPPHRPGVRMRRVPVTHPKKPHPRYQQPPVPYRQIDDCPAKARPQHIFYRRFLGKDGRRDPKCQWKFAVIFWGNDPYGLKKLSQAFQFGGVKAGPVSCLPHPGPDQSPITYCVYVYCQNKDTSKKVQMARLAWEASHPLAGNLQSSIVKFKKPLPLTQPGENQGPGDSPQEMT
Calb FLC = C. albicans growth inhibition with fluconazole, primary screen, CaCi-2 strain, Alamar Blue fluorescence | C. albicans CaCi-2 (fluconazole-resistant clinical isolate) + fluconazole, 48 h | growth inhibition, % (concentration not given with the values) | 300,000 compounds, 0.57% hits;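 active means most replicates above 75%; inconclusive means exactly half above 75%; inactive means most below 75%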;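 further: all wells also contain fluconazole at 8 µg/ml as a sub-toxic cotreatment; 0% = median of DMSO wells and 100% = median of geldanamycin control wells; wells of about 8 µL received 7.5 nL stock; the first replicate is given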
Beta apoptosis = inhibitors of cytokine-induced beta cell apoptosis, primary screen, luminescence | 300,000 compounds, 0.8% hits | protection from apoptosis, % (no concentration beside the values) | AID 435005, 2010 | INS-1E cytokine-induced death, ATP luminescence, 48 h; percent of positive-control rescue, neutral wells zero;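 active means all replicates at 75% or more, or half of them and the mean; inconclusive means half reach 75% but not the mean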;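 further: 0% = cytokine-treated negative control wells and 100% = positive control rescue; higher means more ATP so stronger rescue from cytokine killing; wells of about 40 µL received 100 nL stock; the first replicate is given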
Vif A3G = inhibitors of Vif binding to APOBEC3G peptide, primary screen, biochemical, TR-FRET, GST-Vif 1-94, biotin-A3G peptide, dose response retest (AID 1117319). TR-FRET GST-Vif / biotin-A3G peptide binding; higher % means a stronger effect; test concentration not given here; strong numbers were not always called active. 260,000 compounds, 0.57% hits. inhibition, %, or IC50 in µM where a hit was titrated. Virion infectivity factor (Human immunodeficiency virus type 1 group M subtype B (isolate …;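 active means above the screen mean plus three standard deviations and confirmed in dose response; inconclusive means results disagree or hit not tested in dose response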;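 further: Vif residues 1-94 fused to GST binding biotinylated APOBEC3G peptide 110-148; 0% = full assay without inhibitor and 100% = GST in place of GST-Vif; retest series ran down from 100 µM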
Bfl-1 A1 inh = caspase 3/7 activation in MEF A1-2A-BIM cells, primary screen, A1 inhibitor project, cell-based, luminescence, HTS. Caspase-Glo 3/7 luminescence, 3 h; percent of clofoctol response, vehicle zero. caspase activation, % (concentration not given with the values). 330,000 compounds, 0.066% hits. AID 2462, 2010;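 active means over half of replicate activation scores above 10%, or exactly half above 10 with the replicate mean above 10; inconclusive means replicate mean below 10 yet half the replicates above 10; inactive means over half of replicates below 10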;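 further: wells of about 30 µL received 50 nL stock; many hits fall short of the cut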
MLL AF4-AF9 inh = inhibitors of AF4 peptide binding to AF9, primary screen, biochemical, AlphaScreen, biotin-AF4 peptide, FLAG-AF9, single point. Protein AF-9 (Homo sapiens), P42568. inhibition, % at 10 µM. 350,000 compounds, 0.47% hits;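 active means every replicate reaching a set inhibition limit, whatever the replicate mean, cut at about 25% in these data; inconclusive means mean inhibition reaches that limit but some replicates miss it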;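 further: 0% = plate neutral control median and 100% = total signal loss; the record names both 10 and 1 µM as test concentration; the first replicate is given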
* hit, by the source's call; ? = inconclusive; . = no result given; & = joins results of further samples. No enrichment for hits; 4.3% or so of the library scored in one or more.

#	SMILES	T cruzi inh	RanGTP-Impb inh	LANA-H2A inh	Calb FLC	Beta apoptosis	Vif A3G	Bfl-1 A1 inh	MLL AF4-AF9 inh
1	Cc1c(C(N)=O)c(-c2ccccc2)nn1-c1ccccc1	-24	?	5.6	6	-4	.	-0.7	.
2	c1ccc(-c2nnc(SCc3nc4ccccc4[nH]3)o2)cc1	2	.	4.2	-4	9	2%	-0.4	.
3	CCCCSCCCNC(=O)Nc1cccc(OC)c1	1	1.4	2.6	15	5	28%	-0.2	-42
4	CCNc1cc(Nc2c(C)n(C)n(-c3ccccc3)c2=O)c([N+](=O)[O-])c2nonc12	-5	0.6	2.0	5	3	-1%	0.4	-0.4
5	CCN1C(=O)CC(NC2CCN(C(=O)c3ccc(F)cc3)CC2)C1=O (stereo not drawn)	-17	6.5	-3.2	-6	0	.	1.4	-1.2
6	Cc1nn(-c2ccccc2)c(C)c1-c1nnc(-c2c(C)nn(-c3ccccc3)c2C)o1	30	0.4	0.7	-2	4	.	0.2	0.1
7	Cc1ccc2nc(Cl)c(CN(Cc3cccs3)C(=O)C3CC3)cc2c1	34	7.8	1.6	5	5	-7%	0.8	.
8	CCCNC(=O)C(Cc1cccc(Cl)c1)NC(=O)c1ccc(C#N)cc1 (stereo not drawn)	.	.	-0.7	.	0	.	-0.2	-0.4

Continued, overlapping the part above by 4 compounds.
#	SMILES	T cruzi inh	RanGTP-Impb inh	LANA-H2A inh	Calb FLC	Beta apoptosis	Vif A3G	Bfl-1 A1 inh	MLL AF4-AF9 inh
5	CCN1C(=O)CC(NC2CCN(C(=O)c3ccc(F)cc3)CC2)C1=O (stereo not drawn)	-17	6.5	-3.2	-6	0	.	1.4	-1.2
6	Cc1nn(-c2ccccc2)c(C)c1-c1nnc(-c2c(C)nn(-c3ccccc3)c2C)o1	30	0.4	0.7	-2	4	.	0.2	0.1
7	Cc1ccc2nc(Cl)c(CN(Cc3cccs3)C(=O)C3CC3)cc2c1	34	7.8	1.6	5	5	-7%	0.8	.
8	CCCNC(=O)C(Cc1cccc(Cl)c1)NC(=O)c1ccc(C#N)cc1 (stereo not drawn)	.	.	-0.7	.	0	.	-0.2	-0.4
9	N#Cc1c2n(c3c(=O)[nH]cnc13)CCCC2	4	-3.3	-1.2	?	-1	-1%	0.5	.
10	CCOC(=O)C1CCCN(C(=O)c2cnn3c(C(F)F)cc(-c4ccc(C)cc4)nc23)C1 (stereo not drawn)	39	7.8	-0.9	12	6	1%	-0.1	.
11	CC1=C(C(=O)Nc2ccccn2)C(c2ccc(Br)cc2)n2ncnc2N1 (stereo not drawn)	-4	-2.9	3.5	-3	-3	2%	0.6	.
12	C/C=C/c1ccc(OCCn2nnc3ccccc32)c(OC)c1	-7	0.8	0.2	17	.	14%	-1.3	3.3
13	O=C(O)c1ccc2nc(C(F)(F)F)[nH]c2c1	.	.	7.7	.	-3	14%	0.2	.
14	Cn1nnnc1SCC(=O)Nc1ccccc1-c1ccccc1	-13	0.0	1.0	3	-5	6%	0.6	.
15	Cc1c(Cl)cccc1NC(=O)CNc1cccc(C(F)(F)F)c1	-11	-0.9	-5.3	0	0	20%	0.5	0.0
16	N#C/C(=C/c1ccc2c(c1)OCO2)C(=O)Nc1ccc(O)cc1	-5	-2.8	-2.3	2	1	16%	-0.6	-2.7

Compounds listed so far that contain a Cl atom (3):
#	SMILES	T cruzi inh	RanGTP-Impb inh	LANA-H2A inh	Calb FLC	Beta apoptosis	Vif A3G	Bfl-1 A1 inh	MLL AF4-AF9 inh
7	Cc1ccc2nc(Cl)c(CN(Cc3cccs3)C(=O)C3CC3)cc2c1	34	7.8	1.6	5	5	-7%	0.8	.
8	CCCNC(=O)C(Cc1cccc(Cl)c1)NC(=O)c1ccc(C#N)cc1 (stereo not drawn)	.	.	-0.7	.	0	.	-0.2	-0.4
15	Cc1c(Cl)cccc1NC(=O)CNc1cccc(C(F)(F)F)c1	-11	-0.9	-5.3	0	0	20%	0.5	0.0

(list continues)
#	SMILES	T cruzi inh	RanGTP-Impb inh	LANA-H2A inh	Calb FLC	Beta apoptosis	Vif A3G	Bfl-1 A1 inh	MLL AF4-AF9 inh
17	CCOc1cc(C#N)c(NC(=O)c2ccnn2C)cc1OCC	1	-4.1	0.5	-3	-2	6%	0.7	-2.6
18	CCOC(=O)C1=C(C)N=c2s/c(=C/c3cccc(OCC(=O)O)c3)c(=O)n2C1c1ccc(F)cc1 (stereo not drawn)	-2	-2.3	-0.3	6	-4	.	0.5	3.1
19	COc1ccccc1C(=O)C1CCCN(C(=O)c2cccc(Cn3cccn3)c2)C1 (stereo not drawn)	12	-4.1	-4.7	3	-4	6%	-0.4	1.6
20	CC(Sc1nc(N)cc(N)n1)C(=O)Nc1ccc(N2CCOCC2)cc1 (stereo not drawn)	.	.	6.2	.	-1	10%	0.5	5.1
21	CS(=O)(=O)NCCNc1ccc(Cl)cc1[N+](=O)[O-]	-7	0.6	0.6	9	-6	7%	1.3	1.4
22	O=c1c(Br)c(N2CCCCC2)cnn1-c1ccccc1	-9	-0.7	-0.7	-17	1	3%	-0.2	-0.7
23	COC(CC(=O)NNC(=S)Nc1ccc(Cl)cc1)OC	-18	1.5	-0.1	-3	-1	3%	0.4	-0.4
24	COC(=O)C1(C(=O)OC)NOC2C(=O)N(N(C)c3ncc(C(F)(F)F)cc3Cl)C(=O)C21 (stereo not drawn)	8	?	-4.2	-10	-8	-4%	-0.4	-0.6
25	Cc1ccnc2nc(C(=O)OCC(=O)N(Cc3ccccc3)C(C)(C)C)nn12	.	.	3.6	.	-2	.	1.0	-4.1
26	CN(C)c1ccc(C2CC(=O)NC3=C2C(=O)CC(C)(C)C3)cc1 (stereo not drawn)	-8	?	2.3	-12	2	10%	0.2	5.7
27	O=C(c1ccc(N2CCN(CCO)CC2)nc1)N1CCOCC1	-4	0.5	3.2	-12	0	.	0.3	-8.0
28	CCCCN(CCCC)C(=O)c1cc(Cl)ccc1[N+](=O)[O-]	-18	4.2	1.1	1	7	2%	0.7	.
29	COCCN(CCOC)C(=O)c1ccc(NS(=O)(=O)c2ccc3c(c2)OCCO3)cc1	-10	?	-3.3	-6	-3	-3%	-0.7	3.0
30	COc1ccc(CC(=O)Nc2ccc(S(=O)(=O)Nc3cc(OC)nc(OC)n3)cc2)cc1	1	4.5	-3.5	19	0	-7%	.	-1.1
31	N/C(=N\OC(=O)c1ccc(Cl)cc1[N+](=O)[O-])c1ccccn1	17	2.8	-2.6	12	5	.	-2.7	-2.5
32	Cn1c(=O)c([N+](=O)[O-])c(NCc2ccc3c(c2)OCO3)c2ccccc21	24	?	-2.2	0	-9	8%	0.5	5.3
33	NC(=O)CN1C(=O)C(O)(CC(=O)/C=C\c2ccc3c(c2)OCO3)c2ccccc21 (stereo not drawn)	-24	-5.3	0.3	-16	-11	-4%	-0.1	0.2
34	COc1ccc(C(=N/O)/C(=N/O)c2ccc(OC)cc2)cc1	16	-4.1	-5.6	-19	-6	-3%	-0.5	6.2
35	COc1cccc(CNC(=O)C2CCCN(S(C)(=O)=O)C2)c1 (stereo not drawn)	-8	2.2	3.6	2	-8	9%	0.4	.
36	COc1cc(-c2n[nH]c(=S)n2Cc2ccccc2)cc(OC)c1OC	4	1.2	2.0	9	2	-3%	0.3	-3.8
37	Cn1c(C=O)c(C#CC(C)(C)O)c2ccccc21	.	.	-3.0	.	-8	.	-1.7	1.7
38	COc1cccc(C(c2sc3ncnn3c2O)N2CCc3ccccc3C2)c1 (stereo not drawn)	-6	-2.0	-3.1	2	-6	11%	0.7	-6.1
39	O=C(COc1cccc(C(F)(F)F)c1)NNC(=O)c1ccc(=O)[nH]c1	.	.	-1.0	.	-1	.	1.5	-4.6
40	Cc1cc(SCC(=O)N(C)C2CCS(=O)(=O)C2)nc2c(C)cccc12 (stereo not drawn)	-8	1.0	2.6	-27	-2	.	-0.2	0.7
41	CCOc1ccc(N(C)S(=O)(=O)c2cc(-c3cc(C)no3)ccc2OC)cc1	24	0.5	2.1	12	13	.	-1.1	-4.1
42	CC(=O)Nc1ccc(NC(=S)NC(=O)c2cc3ccccc3o2)cc1	-12	?	-4.2	6	-2	10%	-0.2	-1.7
43	O=C(Nc1ccc(Oc2cccc(C(F)(F)F)c2)nc1)c1ccccc1	11	1.6	2.9	-9	8	.	1.0	-1.9
44	O=[N+]([O-])c1cccc(CN2C[C@@]34C=C[C@@H](C[C@@H]3S2(=O)=O)O4)c1	-10	3.8	6.4	-8	-6	.	1.4	-0.1
45	O=C(c1cc(-c2cccc(Cl)c2)nc2ccccc12)N1CCN(c2ccccn2)CC1	24	3.6	-3.6	8	96*	-3%	0.0	0.7
46	COC(=O)C1=C(C)N(Cc2ccccc2)C(=O)/C1=C\c1ccco1	9	-0.8	-1.3	-4	-3	11µM*	-0.3	14
47	C/C(CC(=O)Nc1ccccc1Br)=N\NC(=O)C(=O)N1CCCC1	-4	1.5	-3.3	0	-1	9%	0.3	.
48	O=C(Nc1nc2c(s1)CCc1ccccc1-2)c1ccco1	19	5.6	1.5	29	1	-1%	0.3	.
49	Cc1nc2ccc(S(=O)(=O)NCC(=O)N3CCC(C)CC3)cc2s1	-2	4.1	-0.2	-2	-2	23%	-0.5	.
50	Cc1onc(-c2c(Cl)cccc2Cl)c1C(=O)NC(=S)N1CCOCC1	-19	2.9	1.7	3	2	.	-0.2	0.4
51	CCC(C(=O)OCCN(CC)CC)c1ccccc1 (stereo not drawn)	-12	-1.4	1.4&-25	4	-6	2%	1.0	1.1
52	Cc1nn(CC(=O)N2CCCC2)c(=O)c2cc3cc(F)ccc3n12	-26	-1.6	0.9	18	-4	3%	0.2	1.2
53	CCN(CC(=O)Nc1ccc(NC(C)=O)cc1)C(=O)/C=C/c1cn(-c2ccccc2)nc1-c1ccc(C)cc1	36	?	4.7	20	-8	-1%	-0.3	-0.5
54	C=CCN(c1ccccc1)S(=O)(=O)c1cccc(C(=O)NCc2ccco2)c1	.	.	-3.1	.	-5	.	0.6	-1.3
55	O=C(COC(=O)/C=C/c1ccco1)Nc1ccccc1	-37	3.6	-2.4	8	-1	?	-0.8	0.2
56	Cc1cc(C(=O)CN2C(=O)C(=O)N(C3CCCC3)C2=O)c(C)n1-c1ccc(F)cc1	1	3.8	1.7	3	-8	-9%	-0.4	1.9
